Ecoli growth: E. coli growth inhibition, primary screen, OD600. OD600 absorbance (test concentration not listed). 330,000 compounds, 0.21% hits. AID 1053175, 2014. Escherichia coli growth, 23 h; hits give low values;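 active = OD600 absorbance below the run mean of sample wells minus 3.6 SD, in any replicate, cut at about 0.56 in these data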;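 also: stock transfer was 300 nL into about 60 µL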
Numbers without * were called inactive; & = joins results of further samples. These rows are one share of the data. The share of hits here may be higher or lower than overall.

SMILES	Ecoli growth
CCC1C(=O)OCC1Cc1cncn1C (stereo not drawn)	0.7&0.72

Screening results (PubChem)
